E coli growth: inhibitors of Escherichia coli growth; OD600, 23 h; stronger effect = lower value; OD600 absorbance (no concentration beside the values); 0.21% of 330,000 active;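 active = OD600 absorbance below the run mean of sample wells minus 3.6 SD, in any replicate, cut at about 0.56 in these data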;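 also: stock transfer was 300 nL into about 60 µL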
ALR inh: inhibitors of human sulfhydryl oxidase ALR; purified ALR, DTT oxidation, H2O2 HRP-luminol luminescence; 3.8% of 290,000 active; inhibition, % (test concentration not listed); P55789;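 active = mean and each replicate at 75% or more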;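 also: stock transfer was 7.5 nL into about 7.5 µL; 0% = neutral wells and 100% = wells with inactivated enzyme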
Target sequence (P55789 whole entry, looked up): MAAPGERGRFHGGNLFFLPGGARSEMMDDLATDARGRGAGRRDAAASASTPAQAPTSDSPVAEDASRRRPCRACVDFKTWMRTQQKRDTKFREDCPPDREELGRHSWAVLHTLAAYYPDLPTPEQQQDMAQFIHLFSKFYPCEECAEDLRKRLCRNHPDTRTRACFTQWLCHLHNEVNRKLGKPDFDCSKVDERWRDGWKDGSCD
FGF22 binding: FGF22 (human) thermal shift binding. AID 651658. calls only at 9.99 µM. recombinant FGF22 thermal shift, SYPRO orange fluorescence; percent of sucrose octasulfate shift, DMSO zero. 1.5% of 340,000 active;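 active = melting point raised past a set limit in the mean and every replicate; three in four hits are not shown here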
Target sequence (Q9HCT0 whole entry, looked up): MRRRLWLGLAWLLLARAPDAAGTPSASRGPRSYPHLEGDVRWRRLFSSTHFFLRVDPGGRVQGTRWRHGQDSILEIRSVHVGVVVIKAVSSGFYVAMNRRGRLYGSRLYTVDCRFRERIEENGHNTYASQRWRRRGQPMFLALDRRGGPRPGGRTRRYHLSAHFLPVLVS
UCH37 DUB inh: inhibitors of human deubiquitinating enzyme UCH37 | purified proteasome/UCH37, Ub-AMC cleavage fluorescence | inhibition, % (no concentration beside the values) | 0.33% of 330,000 active | AID 588478;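 active = mean of two replicates above 20%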;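 also: 0% = compound-free wells with enzyme and 100% = wells lacking proteasome; stock transfer was 100 nL into about 20 µL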
Target sequence (Q9Y5K5 whole entry, looked up): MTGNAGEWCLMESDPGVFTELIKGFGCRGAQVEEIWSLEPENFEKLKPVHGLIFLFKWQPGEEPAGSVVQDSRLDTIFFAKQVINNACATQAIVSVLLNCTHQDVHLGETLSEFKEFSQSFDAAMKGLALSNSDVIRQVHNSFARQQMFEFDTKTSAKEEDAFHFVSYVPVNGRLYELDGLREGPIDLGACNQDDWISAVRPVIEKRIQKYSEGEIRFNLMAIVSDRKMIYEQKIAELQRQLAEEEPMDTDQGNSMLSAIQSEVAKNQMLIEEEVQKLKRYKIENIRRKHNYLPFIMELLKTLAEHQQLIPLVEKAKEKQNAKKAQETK
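Material: Human UCH37 enzyme supplied as purified proteasome complex | Schedule: 30 min compound-proteasome preincubation then 25 min substrate reaction, room temperature | Detection: AMC fluorescence from Ub-AMC cleavage, excitation 355 nm, emission 460 nm | Benchmarks: Wells without proteasome as full block, compound-free enzyme plus substrate as uninhibited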
HNF4A DNA FP: change in binding of human HNF4 alpha to DNA. P41235. HNF4a-FITC DNA binding, fluorescence polarization, 1 h. activity change, % at 10 µM. AID 1224865. 0.3% of 360,000 active; in the data active = activity change above about 30%, passing the limit was not always enough;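 also: controls were the assay level and a saturating level of protein; the project sought stronger binding though the title names inhibitors; some compounds called inactive have numbers as strong as hits; positive values seem to mean higher polarization but the record does not say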
rRNA inh HTS: inhibitors of bacterial rRNA selective over humanized ribosomes | E. coli WT GFP vs humanized-ribosome RFP mutants, fluorescence, 24 h; stronger effect = lower value; DMSO median 0, no signal -100 | GFP signal change (wild-type ribosome), % (concentration not given with the values) | 1.6% of 350,000 active;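 active = significant combined selectivity score with lowered wild-type GFP, culture density cut under 30%, mutant RFP and density less affected; inactive = any of these conditions unmet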; also: one replicate is shown; some compounds called inactive have numbers as strong as hits
Beta2AR agonist: agonists of human beta-2 adrenergic receptor inducing internalization; 0.43% of 340,000 active; response, % (test concentration not listed); P07550; Am2.2-beta2AR cells, FAP receptor internalization, flow cytometry; reference of the scale not given here;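 active = response above a set limit, near 3 SD of response in nonfluorescent compounds, cut at about 42% in these data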;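 also: stock transfer was 100 nL into about 11 µL; a reference agonist was the positive control; negative values mostly stem from fluorescent compounds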
rRNA inh HTS OD600: recorded beside rRNA inh HTS, whose call it bears; OD600 change, %; measured here: OD600 growth;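 optical density of the mix in the first replicate; 0 = DMSO median and -100 = no signal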
rRNA inh HTS RFP: further read-out of rRNA inh HTS, marked with its call; RFP signal change, %; measured here: RFP humanized mutant strains;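 first replicate; 0 = DMSO median and -100 = no signal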
Numbers without * were called inactive; i = inactive; / = not tested or not shown; & = joins results of further samples.

mol,rRNA inh HTS OD600,ALR inh,FGF22 binding,HNF4A DNA FP,UCH37 DUB inh,rRNA inh HTS RFP,Beta2AR agonist,rRNA inh HTS,E coli growth
O=C(CN1C(=O)NC2(CCc3ccccc32)C1=O)c1ccc(Br)cc1 (stereo not drawn),-24.8,-4.0,i,0.9,1.3,-6.0,-9.5,-24.4,0.618
Cc1ccc(NC(=O)COC(=O)CCc2ccc(S(=O)(=O)N3CCOCC3)cc2)cc1F,-22.5,-16.7,i,4.3,4.4,1.5,3.4,-23.9,0.698
O=[N+]([O-])c1nn(-c2ccc3c(c2)OCCO3)n(O)c1=NCc1ccc(F)cc1,/,-48.6,/,-1.3,7.2,/,-5.9,/,0.668
CCOC(=O)c1c(S(=O)(=O)NCC(=O)Nc2cccc(F)c2)c(C)n(C)c1C,-2.5,-3.0,i,-1.5,1.5,-1.0,13.6,4.6,0.662
O=C1NCC(c2ccccc2)(c2ccccc2)C(=O)N1,7.8,/,i,1.5,/,0.7,-1.1,4.6,/
O=C(CN1C(=O)c2ccccc2S1(=O)=O)Nc1ncc(Cl)cc1Cl,9.6,1.9,i,-21.0,-2.9,4.8,4.2,13.9,0.728
C=CCn1c(CCNC(=O)C(C)(C)C)nc2ccccc21,/,-9.9,/,2.0,5.2,/,-2.2,/,0.719
CC(=O)c1cccc(NC(=O)NNC(=O)c2ccc3ccccc3c2)c1,6.7,0.2,i,2.3,4.4,-3.1,-2.8,3.2,0.702
COc1ccccc1NC(=O)CSc1nccc(-c2ccco2)n1,-35.9,-7.4,i,3.7,5.3,-0.8,-2.7,-18.1,0.706
COc1cc(CN2CCNC(=O)C2CC(=O)N2CCCN(C(C)=O)CC2)cc(OC)c1 (stereo not drawn),15.8,-4.8,i,2.5,0.5,3.6,-0.9,6.1,0.732
CC1CCN(c2ccc(S(=O)(=O)N3CCC(C)CC3)cc2N)CC1,-19.8,-0.4,i,2.1,3.5,-3.2,-4.2,-5.6,0.65
Cc1ccc(Cn2c(=O)c3cccnc3n(CC(=O)Nc3cccc(C(F)(F)F)c3)c2=O)cc1,3.4,-6.8,i,3.3,-24.4,1.5,1.0,22.5,0.7
Cc1ccc(CSc2nnc(Cn3c(=O)sc4ccccc43)n2C)cc1,-16.4,/,i,3.0,0.9,-1.2,-20.3,-7.2,0.737
CCN(c1ccccc1)S(=O)(=O)c1ccc2c(c1)N(C(C)=O)CCO2,-2.7,-7.2,i,5.8,3.4,-1.0,-11.7,3.0,0.693
CN1CCN(S(=O)(=O)c2cccc(C(=O)Nc3ccc(Br)cc3Br)c2)CC1,-7.2,-8.8,i,10.3,-1.5,3.0,2.1,-11.6,0.638
C[n+]1ccc(/C=C/c2c[nH]c3ccc(F)cc23)cc1,15.6,31.2,i,81.2,17.5,-4.3,-331.2,76.5,0.641
O=C(c1cc2cc(Br)ccc2[nH]1)N1CCc2ccccc21,6.9,-10.8,i,2.6,-3.1,-0.1,-5.8,3.3,0.715
CC(C)C(=O)Nc1ccc(NC(=O)c2cc3ccccc3o2)cc1,/,-17.4,/,16.5,-4.1,/,-2.5,/,0.693
COc1cccc(CN(C)C(=O)C2CC(=O)N(c3ccc4c(c3)OCCO4)C2)c1 (stereo not drawn),6.7,-1.5,i,-1.8,0.4,-1.7,3.9,5.9,0.722
CCn1c(SCC(=O)Nc2cccnc2Cl)nnc1-c1ccccc1,0.8,-10.6,i,-3.5,-0.1,-1.0,-3.9,7.1,0.682
CCn1nc(C)c(/C=N/NC(=O)Cn2nc(C)cc2C)c1C,/,-1.7,/,-1.6,/,/,-6.5,/,/
Cc1csc(SCC(=O)NC2CCC(C)CC2)n1 (stereo not drawn),0.6,-6.2,i,1.2,3.2,0.3,12.9,1.1,0.655
CCc1ccccc1N(C)S(=O)(=O)c1ccc2[nH]cc(C(=O)N3CCc4ccccc43)c(=O)c2c1,0.6,-25.1,i,1.0,2.0,3.3,9.5,5.4,0.723
O=C(CN1CCOCC1)Nc1c(-c2ccccc2)c2cc(Br)ccc2[nH]c1=O,-11.6,-6.0,/,3.3,3.0,-0.1,2.3,-2.6,0.69
CCOC(=O)N1CCC(NCCNC(=O)c2cccc(F)c2)CC1,-3.9,5.3,i,-0.1,3.4,0.9,-0.4,-3.4,0.714
Fc1ccc(CNCCC(Cc2ccccc2)c2ccco2)cc1 (stereo not drawn),-47.6,0.4,i,3.3,2.5,-7.2,0.2,-45.7,0.64
CN(C(=O)Cn1cc([N+](=O)[O-])ccc1=O)C1CCCCC1,1.0,-3.4,i,0.3,4.5,-2.3,5.6,-4.2,0.698
CC1CCCCN1S(=O)(=O)c1ccc(C(=O)Nc2nnc(-c3ccccc3Cl)o2)cc1 (stereo not drawn),/,-0.6,/,2.1,7.1,/,12.0,/,0.722
N[C@@H](Cc1ccc(O)cc1)c1nnc([C@H](CC(=O)O)NC(=O)C2CCNCC2)o1,15.4,-34.9,i,2.5,5.1,-1.3,-2.3,12.8,/
Cc1nn(C)c(Cl)c1CN1CCCC(C(=O)Nc2cccc(-n3cccn3)c2)C1 (stereo not drawn),5.7,-4.8,i,-4.8,0.6,3.6,-12.2,5.5,0.701
O=C(N/N=C/C1CC=CCC1)c1cc(Br)ccc1O (stereo not drawn),10.6,8.3,i,2.1,/,-6.4,3.0,6.4,/
COc1ccc(CCNC(=O)CNS(=O)(=O)c2ccc(F)c(Cl)c2)cc1OC,3.1,-2.3,i,-4.5,2.0,-3.7,1.2,-3.5,0.66
C[C@@H]1CN([C@H](C)CO)C(=O)CCCn2nncc2CO[C@H]1CN(C)S(=O)(=O)c1cccc(F)c1,6.2&2.6,/,i,-0.6,/,-1.3&0.1,/,13.6&-1.6,/
Cc1cc(=O)oc2cc(OCC(=O)NC3CC(C)(C)NC(C)(C)C3)ccc12,15.9,-11.6,i,-5.7,-11.3,0.0,-1.9,-2.9,0.657
Cc1noc(C)c1S(=O)(=O)N(CCc1ccccc1)Cc1ccccc1,/,-2.8,/,-4.4,0.5,/,5.7,/,0.692
O=C(/C=C/c1ccccc1)N1CCCN(C(=O)/C=C/c2ccccc2)CC1,/,-5.2,/,-0.2,5.3,/,-4.4,/,0.728
Cc1ccc(NC(=S)NC2CCCC2)cc1,/,52.6,/,1.1,1.8,/,6.0,/,0.661
CCOC(=O)N1CCN(C(=O)C(C)N(c2ccccc2)S(C)(=O)=O)CC1 (stereo not drawn),12.0,-1.9,i,3.9,1.5,1.5,3.8,23.1,0.724
CC(C)(C)NC(=O)NC(=O)COC(=O)Cn1c(C(F)(F)F)nc2ccccc21,/,/,/,3.9,2.2,/,1.9,/,0.676
Cc1cccc(-c2oc3ccc(-c4ccc5c(c4)OCO5)cc3c2/C=C/c2ccc(N)cc2)c1,/,1.2,/,2.8,-17.4,/,1.3,/,/
CCN(CC)C(=O)CSc1nc2ccccc2o1,/,0.1,/,17.6,-3.7,/,-3.5,/,0.746
CCOC(=O)C1CCCN(C(=O)c2ccc(CS(=O)(=O)c3ccc(Br)cc3)o2)C1 (stereo not drawn),1.7,66.7,i,-3.3,4.6,2.2,3.0,-0.4,0.711
COc1cc(C(=O)NCC(=O)OCc2ccccc2Cl)cc(OC)c1OC,-22.1,-1.1,i,-2.8,-2.6,-3.8,5.7,-19.2,0.636
Cc1cccc(NC(=O)c2ccc(S(=O)(=O)NCc3cccnc3)cc2)c1,-3.5,-0.7,i,0.5,2.7,-2.4,-7.5,-9.5,0.682
Cc1c(OC(C(=O)O)c2ccccc2)ccc2c(-c3ccccc3)cc(=O)oc12 (stereo not drawn),-10.3*,14.4,i,0.7,-3.7,-2.9*,4.5,-24.8*,0.709
O=C(Nc1cccn2ncnc12)c1ccccc1,/,2.2,/,-1.4,3.1,/,-2.2,/,0.666
O=C(Nc1ccc2c3c(cccc13)CC2)c1ccc(Br)o1,/,-4.1,/,1.4,-4.4,/,9.4,/,0.773
Cc1cc(OCCN2CCOCC2)ccc1[N+](=O)[O-],/,0.8,/,-1.0,5.5,/,0.2,/,0.636
CC(=O)Nc1ccccc1NC(=O)C/C(C)=N/NC(=O)c1ccncc1,12.5,15.6,i,-1.6,/,-2.0,8.5,-4.6,/
CCOC(=O)/C(N=Nc1ccc(F)cc1)=C(/O)c1ccc([N+](=O)[O-])cc1,/,7.5,/,-0.3,5.0,/,7.5,/,0.702

Next part:
mol,rRNA inh HTS OD600,ALR inh,FGF22 binding,HNF4A DNA FP,UCH37 DUB inh,rRNA inh HTS RFP,Beta2AR agonist,rRNA inh HTS,E coli growth
O=C(NCCc1ccc(Cl)cc1Cl)c1cc([N+](=O)[O-])c[nH]c1=O,4.3,4.4,i,3.7,7.5,6.8,2.3,20.7,0.59
O=C(Nc1ccc2c(c1)OCCO2)C1c2ccccc2OCC(=O)N1CC(F)(F)F (stereo not drawn),3.7,/,i,-2.2,/,-0.2,/,-3.0,/
Cc1cccc(/C=N/NC(=O)c2c(-c3ccccc3)noc2C)c1O,-58.8,12.3,i,-5.3,/,1.5,-4.8,-33.2,/
Cc1c(C(=O)Nc2ccccc2)oc2c1C(=O)CC(C)(C)C2,/,-6.9,/,-0.1,4.2,/,-7.3,/,0.644
O=C(NN1CCOCC1)c1cccc(F)c1,-8.3,-6.0,i,3.8,1.4,-1.8,0.3,4.9,0.69
c1ccc(-n2nnnc2SCc2cccc3nsnc23)cc1,/,/,/,2.9,0.2,/,-1.9,/,0.688
O=C1OC(N2C(=O)CC[C@H]2C(=O)Nc2cccc(F)c2)c2ccccc21 (stereo partly drawn),/,/,i,2.3,4.0,/,-7.8,/,0.708
CCn1c(NC(=O)c2cccs2)nc2ccccc21,/,-1.2,/,1.8,2.8,/,-12.8,/,0.71
Cc1ccc(OCC(O)Cn2c(=N)n(Cc3ccccc3)c3ccccc32)cc1 (stereo not drawn),/,-3.8,/,-0.7,2.7,/,54.6*,/,0.624
COc1ccc(-n2c(Cc3cc(=O)[nH]c(=O)[nH]3)nnc2SCC(=O)NC2CCCC2)cc1,20.2,-53.5,i,-0.4,3.0,0.3,51.7*,11.3,0.756
Cc1ccccc1NC(=O)Nc1nnc([C@@H]2C[C@H](O)[C@@H](CO)O2)s1,19.2,/,i,-0.9,/,-0.7,/,6.8,/
O=C(N/N=C/C=C\c1ccccc1[N+](=O)[O-])c1cccnc1,14.2,-7.8,i,5.0,/,0.8,0.3,15.1,/
CCCOc1cccn2c(N(C=O)Cc3ccc(OC)cc3)c(CC)nc12,8.4,/,i,4.7,/,1.4,/,3.6,/
O=C(O)/C=C/C(=O)NNC(=O)c1ccc(Br)cc1,9.8,5.3,i,0.3,0.9,5.7,-6.6,7.8,0.666
Cc1ccc2c(C)c(C(=O)N3CCC(N4CCC(C(=O)NC5CC5)CC4)CC3)oc2c1,-3.9,/,i,-0.7,1.0,-0.2,-3.7,13.6,0.706
COCCNC(=O)c1ccccc1NC(=O)CN(c1ccc2c(c1)OCO2)S(C)(=O)=O,/,-14.5,/,-1.0,4.0,/,7.1,/,0.671
CC(=O)N1c2ccccc2C(=O)C1N1CCCCC1 (stereo not drawn),/,-20.4,/,-2.9,4.7,/,7.3,/,0.692
CC(=O)c1cc2c(cc1NS(=O)(=O)c1ccccc1F)OCO2,8.8,-4.8,i,0.1,3.3,-0.5,7.8,20.1,0.663
CCc1ccccc1OCC(=O)Nc1ccc(N2CCCC2)cc1C,1.3,/,i,51.6*,-1.3,-0.5,-6.3,-1.6,0.72

Compound activity deposited in PubChem by several laboratories.

An excerpt; the hit share may differ from the screen's.
